Compound activity as filed in PubChem BioAssay.
KCNQ2 pot: enhances the rat KCNQ2 potassium channel. B-score at 10 µM. O88943. CHO-K1 KCNQ2, FluxOR thallium flux fluorescence; active compounds read high. 310,000 compounds, 0.54% hits;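 active means fluorescence ratio B-score at least 3 SD of library B-scores, with initial fluorescence B-score within 3 SD, cut at about 5.3 in these data; same plate scores as AID 2156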;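 further: B-score of peak minus minimum over baseline fluorescence ratio after K+ and Tl+ stimulus; positive B-score means potentiation of KCNQ2 with more thallium influx and brighter signal; only the inactives scoring about 0 or higher are listed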
Target sequence (O88943 whole entry, looked up): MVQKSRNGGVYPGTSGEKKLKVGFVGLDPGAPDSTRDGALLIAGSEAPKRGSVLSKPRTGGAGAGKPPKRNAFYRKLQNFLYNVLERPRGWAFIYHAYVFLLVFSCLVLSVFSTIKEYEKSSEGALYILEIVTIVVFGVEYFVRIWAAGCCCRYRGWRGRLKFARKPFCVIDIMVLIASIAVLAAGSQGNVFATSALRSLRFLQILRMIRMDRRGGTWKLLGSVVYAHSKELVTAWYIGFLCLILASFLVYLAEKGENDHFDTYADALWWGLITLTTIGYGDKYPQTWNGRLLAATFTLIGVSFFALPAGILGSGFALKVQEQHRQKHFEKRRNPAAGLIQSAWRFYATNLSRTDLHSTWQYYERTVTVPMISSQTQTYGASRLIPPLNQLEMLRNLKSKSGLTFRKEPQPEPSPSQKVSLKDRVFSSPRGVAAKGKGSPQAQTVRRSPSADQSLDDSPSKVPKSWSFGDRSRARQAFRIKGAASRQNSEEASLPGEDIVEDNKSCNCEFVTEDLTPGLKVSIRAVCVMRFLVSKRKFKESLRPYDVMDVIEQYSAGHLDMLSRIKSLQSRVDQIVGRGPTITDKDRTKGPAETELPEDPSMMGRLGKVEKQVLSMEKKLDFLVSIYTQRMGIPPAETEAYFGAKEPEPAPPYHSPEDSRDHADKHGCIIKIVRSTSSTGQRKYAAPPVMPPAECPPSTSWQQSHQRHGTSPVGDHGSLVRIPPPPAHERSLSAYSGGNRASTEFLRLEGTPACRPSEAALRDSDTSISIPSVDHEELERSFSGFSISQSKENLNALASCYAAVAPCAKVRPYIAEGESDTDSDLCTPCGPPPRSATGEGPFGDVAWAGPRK
KCNQ2 pot baseline: recorded beside KCNQ2 pot, whose call it bears; B-score; compound at 10 µM; measured here: initial fluorescence intensity artifact check;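 brightness before thallium and not channel activity; 0 = typical well and far values either way flag optical interference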
* hit, by the source's call. This is a subset; rates above refer to the full screens.

cpd	canonical_smiles	KCNQ2 pot	KCNQ2 pot baseline
1	CCOC(=O)C1=C(C)NC(=S)NC1c1cccs1 (configuration not stated)	1.3	-0.59
2	Cc1ccc(SCC(=O)NCCC2=CCCCC2)cc1	0.06	-0.25
3	COCCn1cnnc1SCC(=O)c1ccc(S(=O)(=O)N2CCCC2)cc1	0.34	0.32
4	COC(=O)N/N=C/c1ccc(-c2ccc(C)c(Cl)c2)o1	0.17	0.42
5	C=CCn1c(O)c(N=NC(=O)CNC(=O)/C=C/c2ccc(OC)cc2)c2ccccc21	0.44	0.84
6	Cc1cc(=O)oc2cc(OCC3CC(c4ccc(Br)cc4)=NO3)ccc12 (configuration not stated)	0.77	-1.2
7	CCC(Oc1ccc(C)cc1)C(=O)Nc1ccc(S(=O)(=O)Nc2cc(C)on2)cc1 (configuration not stated)	2	-0.19
8	Cc1ccc(S(=O)Cc2ccc(C(=O)N3CCN(C4CCCCC4)CC3)o2)cc1 (configuration not stated)	0.41	0.42
9	NS(=O)(=O)c1cccc(NC(=O)CSc2nc3ccccc3[nH]2)c1	0.11	2.5
10	CCCCn1c(=O)[nH]c(=O)c2c(C(=O)OCC)cc(-c3cccs3)nc21	1.1	-1.2
11	CSc1cccc(NC(=O)Nc2ccccc2)c1	3.7	2.8
12	Cc1ccc(C)c(NC(=O)c2ccc(OC(=O)c3ccco3)cc2)c1	0.03	-1.9
13	CC(OC(=O)c1cccnc1Cl)C(=O)Nc1ccc(S(N)(=O)=O)cc1 (configuration not stated)	0.18	-1.6
14	Cc1ccnc(NC(=S)NC(=O)c2cccs2)c1	0.79	0.28
15	CCN(Cc1ccccc1)C(=O)C1CCN(C(=O)Nc2ccccc2)CC1	0.19	0.03
16	Cc1cccc(NC(=O)Nc2ccncc2)c1	0.1	0.5
17	O=C(c1ccc2c(c1)OCCO2)N1CCN(c2ncc(C(F)(F)F)cc2Cl)CC1	0.07	0.73
18	CC(=O)Nc1cccc2c1C(=O)N(c1ccccc1OC(C)=O)C2=O	0.38	-1.8
19	CC(=O)N1CCc2cc(S(=O)(=O)N3CCCCC3C)ccc21 (configuration not stated)	0.17	0.2
20	C=C(C)Cn1c(SCCCO)nc2c1c(=O)[nH]c(=O)n2C	0.27	1.5

The list goes on (three carried over from the part before).
cpd	canonical_smiles	KCNQ2 pot	KCNQ2 pot baseline
18	CC(=O)Nc1cccc2c1C(=O)N(c1ccccc1OC(C)=O)C2=O	0.38	-1.8
19	CC(=O)N1CCc2cc(S(=O)(=O)N3CCCCC3C)ccc21 (configuration not stated)	0.17	0.2
20	C=C(C)Cn1c(SCCCO)nc2c1c(=O)[nH]c(=O)n2C	0.27	1.5
21	Fc1ccc(-n2nnc(-c3cnc4ccccc4c3)n2)cc1	0.5	-0.57
22	COc1cc(/C=C2/SC(=S)N(c3ccccc3)C2=O)ccc1Oc1nc(N2CCOCC2)nc(N2CCOCC2)n1	0.88	-0.28
23	COc1cc2c(=O)n(CCC(=O)NCC3CCCO3)c(=O)n(CC(=O)Nc3ccc(C)cc3C)c2cc1OC (configuration not stated)	0.03	-0.05
24	Cc1ccc2[nH]c3c(N4CCOCC4)ncnc3c2c1	2	-0.16
25	CC(=O)c1cc(F)c(N2CCOCC2)cc1C	1.4	-2.4
26	COc1ccc2c(c1)[nH]c1c(=O)n(Cc3ccncc3)cnc12	0.89	-0.01
27	Cn1c(=O)c([N+](=O)[O-])c(N2CCN(Cc3ccc4c(c3)OCO4)CC2)c2ccccc21	0.64	0.65
28	CCn1ccc(C(=O)NC2=NCCS2)n1	0.1	1.3
29	CCC(C)NC(=O)Nc1ccc(F)c(Cl)c1 (configuration not stated)	1.6	1.3
30	Nc1nonc1-n1nnc(C(=O)N/N=C/c2ccc3c(c2)OCO3)c1-c1ccccc1	0.29	0.31
31	Cc1ccc(/C=N/n2c(-c3cccnc3)n[nH]c2=S)s1	0.14	-0.32
32	O=C(CSc1nccn1-c1ccccc1)c1ccc(Cl)cc1	1	-0.33
33	Cc1oc(-c2ccccc2Cl)nc1CS(=O)CC(=O)NCCCN1CC(C)CC(C)C1 (configuration not stated)	0.85	0.17
34	CCc1ccc(NC(=O)N(CCCOC(C)C)C2CCN(C(C)=O)CC2)cc1	0.02	0.2
35	CCN(CCCNC(=O)C1CCN(S(=O)(=O)CC)CC1)c1cccc(C)c1	0.97	0.35
36	CC(C)(C)c1ccc(Oc2ccc(NC(=O)c3ccco3)cn2)cc1	2.3	0.17
37	O=C(NC(Cc1ccccc1)C(=O)O)/C(=C\c1ccco1)NC(=O)c1ccccc1 (configuration not stated)	1.3	-2.1
38	COc1ccc(CCNc2nc(-c3cccnc3)nc3ccccc23)cc1OC	1.7	-0.13
39	O=C(NC(=S)Nc1ccccc1N1CCOCC1)c1ccc(-c2ccccc2F)o1	0.46	-1.6
40	Cn1ccnc1SCC(=O)N1CCN(S(=O)(=O)c2ccccc2)CC1	1.1	0.02
41	COc1ccccc1CCC(=O)OCC(=O)c1c(N)n(CC(C)C)c(=O)n(C)c1=O	0.3	-1.2
42	COc1ccc(/C=N/N2CCN(c3ccccc3OC)CC2)cc1OC	0.01	0
43	COc1ccc(C2C(C(=O)N3CCN(c4ccccc4)CC3)c3ccccc3C(=O)N2C)cc1OC (configuration not stated)	1.3	-1.3
44	COc1ccccc1OCc1nc(-c2ccc([N+](=O)[O-])cc2)no1	0.44	-1.6
45	O=C(Nc1ccc(S(=O)(=O)N2CCCCC2)cc1)c1ccc(F)cc1	1.7	-1.5
46	CC(=O)c1ccc(OC(=O)C2CC(=O)N(c3cccc(C)c3)C2)cc1 (configuration not stated)	0.72	-0.29
47	c1ccc(-c2nc3ccccn3c2NC2CCCC2)nc1	0.11	-1.1
48	CC1=NN(c2ccccc2)C(=O)C1c1ccccc1 (configuration not stated)	1	-2
49	CCOc1ccc(C(=O)Nc2ccc(N3CCN(C)CC3)cc2)cc1Br	0.97	-1.1
50	Cc1ccc(NC(=O)N/C=C/c2ccco2)cc1	1.1	-0.25
51	CCC(=O)OC1(C)C(=O)C=C2C=C(C3CC3)OC=C2C1=O (configuration not stated)	1	-0.07
52	CN1/C(=C\C(=O)COC(=O)c2ccc([N+](=O)[O-])o2)C(C)(C)c2ccccc21	0.22	0.66
53	Cc1ccccc1C(=O)Nc1nnc(SCC(=O)NC2CC2)s1	1.1	-0.59
54	COc1ccc(CNC(=O)C(C)NCc2ccccc2Cl)cc1 (configuration not stated)	0.03	-0.71
55	O=C(NCc1ccccn1)C1CCCN(S(=O)(=O)c2ccccc2)C1 (configuration not stated)	0.93	1.2
56	CS(=O)(=O)Nc1ccc(C(=O)Nc2ccccc2C(=O)NCc2ccco2)cc1	1.2	1.5
57	O=C(O)C(C(=O)O)=C1C2CC3CC(C2)CC1C3	1.3	-1.4
58	Cc1cc(C)nc(/N=C2\NC(=O)CC3C(=O)NCCN23)n1 (configuration not stated)	0.32	0.15
59	CCCOc1ccc(C(=O)N(Cc2cccs2)C2CCS(=O)(=O)C2)cc1 (configuration not stated)	1.9	-0.69
60	S=c1[nH]nc(-c2cccs2)n1/N=C/c1cn(-c2ccccc2)nc1-c1ccccc1	4.2	1.2
61	O=C(c1ccc(Cl)cc1)N1CCCCC(Cl)C1=O (configuration not stated)	1.4	-0.01
62	COc1ccc(-c2nc(C(=O)O)cs2)cc1OC	0.08	2.7
63	Cc1nn(S(=O)(=O)c2ccc(C(C)C)cc2)c(C)c1S(=O)(=O)N1CCOCC1	0.2	0.52
64	CC1=C(C#N)C(c2ccc3ncccc3c2)C(C#N)=C(C)N1	0.16	-0.52
65	Cc1cc(C)c(NC(=O)CSc2nc3ncc(Cl)cc3[nH]2)c(C)c1	1	0
66	CC(C)Nc1nnc(Sc2ccc(Cl)cc2[N+](=O)[O-])s1	1.1	-0.54
67	C1CCc2nnc(-c3nnc4n3CCCCC4)n2CC1	0.26	0.19
68	CCCCCn1c(N2CCCC2)nc2c1c(=O)n(C)c(=O)n2C	0.03	2.4
69	CCCCN(CC)S(=O)(=O)c1ccc2c(c1)n(C)c(=O)c(=O)n2C	0.77	0.18
70	C=CCn1cnc2sc(C(=O)Nc3ccccc3OC)c(C)c2c1=O	0.59	0.53
71	C/C(=N/Nc1ncc(Br)cn1)c1ccc(Br)cc1	3.1	0.17
72	O=[N+]([O-])c1ccc(N2CCN(C(=S)Nc3ccccc3)CC2)cc1	0.01	-0.02
73	Cc1ccc(S(=O)(=O)Cn2nnnc2C(CC(C)C)N2CCN(c3ccccc3)CC2)cc1 (configuration not stated)	0.11	-2.5
74	Nc1ncnc2c1ncn2CCNCCc1ccccc1	1.3	-0.43
75	Nc1ncnc2c1ncn2[C@@H]1O[C@H](COP(=O)(O)O)[C@@H](O)[C@H]1O	1.4	-0.2
76	O=C(/C=C/c1cccc(F)c1)N1CCN(c2ncccn2)CC1	1.5	-1.1
77	COc1ccccc1C(=O)Nc1ccc2c3c(cccc13)CC2	0.27	-0.03
78	CCOC(=O)COc1ccc([N+](=O)[O-])cc1	0.06	1.1
79	CCCOc1ccc(C(=O)NCCN2CCOCC2)cc1	0.79	-0.75
80	Cc1ccc(NC(=O)COC(=O)c2cccc3c(=O)c(C)c(-c4ccccc4)oc23)cc1	2.3	0.88

Other records
cpd	canonical_smiles	KCNQ2 pot	KCNQ2 pot baseline
81	Cn1c(N)c(C(=O)COC(=O)CCCc2c[nH]c3ccccc23)c(=O)n(C)c1=O	2.1	-0.82
82	O=C(NCc1ccccc1)c1ccc(Cl)c(NC2=NC3CS(=O)(=O)CC3S2)c1 (configuration not stated)	0.05	-0.06
83	COC(=O)C1=CN(Cc2ccc(OC)c(OC)c2)C=C(C(=O)OC)C1c1ccc(F)cc1	1.3	-1.2
84	COc1ccc(N=Cc2c(O)[nH]c3ccccc23)cc1	1.4	-0.96
85	CCOc1nc(C)ccc1-c1noc(-c2ccco2)n1	0.47	0.19
86	COc1ccc(/C=N/Nc2nc(-c3cccc(S(=O)(=O)N4CCCC4)c3)cs2)cc1OC	0.7	-0.84
87	CC(=O)c1ccc(Oc2ccc(C(=O)c3ccc(C)c(C)c3)cc2[N+](=O)[O-])cc1	0.44	1.1
88	O=C(CSC1=NCCS1)N1CCCCCC1	0.07	-1.2
89	CS(=O)c1ccccc1COC(=O)Nc1cccc(Cl)c1 (configuration not stated)	0.06	0.74
90	O=c1oc2cc(O[C@@H]3OC[C@@H](O)[C@H](O)[C@H]3O)ccc2c2ccccc12	1.1	-0.93
91	COCc1ccc(CN2CCC(n3nccc3NC(=O)CCOc3ccccc3)CC2)o1	0.87	0.1
92	COCCCNC(=O)c1ccc(Cn2c(=O)c3ccccc3n(Cc3ccccc3C)c2=O)cc1	0.03	0.27
93	Cc1cccc(C(=O)NCCc2ccc(S(N)(=O)=O)cc2)c1[N+](=O)[O-]	1	0.46
94	O=C(O)c1ccccc1-c1csc(-c2ccccc2)n1	0.44	-0.46
95	C=CCSc1nnc2c(n1)OC(c1cccnc1)N(C(C)=O)c1ccccc1-2 (configuration not stated)	0.88	-1.7
96	O=C(CSc1ncn[nH]1)NCc1ccccc1	0.42	0.66
97	CC(=O)N1CCN(Cc2nc3cc(NC(=O)Nc4ccccc4)ccc3n2C)CC1	1.8	0.51
98	COc1ccccc1C(=O)NCC(=O)OCC(=O)Nc1ccc2[nH]c(=O)[nH]c2c1	0.11	0.04
99	Cc1cc(-n2c(C)cc(C(=O)COc3ccc([N+](=O)[O-])cc3)c2C)no1	0.48	-2.2
100	Cc1ccccc1NC(=S)N1CCN(Cc2ccc3c(c2)OCO3)CC1	1.6	-1

Quoted at random: 3 records from the list.
cpd	canonical_smiles	KCNQ2 pot	KCNQ2 pot baseline
74	Nc1ncnc2c1ncn2CCNCCc1ccccc1	1.3	-0.43
8	Cc1ccc(S(=O)Cc2ccc(C(=O)N3CCN(C4CCCCC4)CC3)o2)cc1 (configuration not stated)	0.41	0.42
12	Cc1ccc(C)c(NC(=O)c2ccc(OC(=O)c3ccco3)cc2)c1	0.03	-1.9

The list continues.
cpd	canonical_smiles	KCNQ2 pot	KCNQ2 pot baseline
101	Cc1ccc(S(=O)(=O)N(C)CC(=O)N2CCOCC2)cc1	1.8	0.02
102	CCN(CCn1cccn1)Cc1nc(-c2ccc(OC)cc2)no1	0.13	-0.25
103	Cc1cc(C)nc(NCC(O)CNc2ccccc2C)n1 (configuration not stated)	0.82	-1.3
104	Nc1nnc(CC(=O)N/N=C/c2cccc([N+](=O)[O-])c2)s1	0.97	-0.31
105	C/C(=N\NC(=O)c1cccc(N/N=C(\C)c2ccc([N+](=O)[O-])cc2)c1)c1ccc([N+](=O)[O-])cc1	0.42	0.56
106	CN1C(=O)C(CC(=O)NCC2CCCCC2)SC1=Nc1ccccc1 (configuration not stated)	1.2	-0.16
107	COC(=O)c1cc(OC)c(OC)cc1NC(=O)CCNC(=O)c1ccco1	0.2	-1.5
108	CCOC(=O)Cn1c(C)cc(COC)c(C#N)c1=O	0.58	-0.73
109	O=C(Cn1ccc([N+](=O)[O-])n1)N1CCCc2ccccc21	0.85	-0.95
110	CCOC(=O)c1coc(CNC(=O)c2c(C)oc3c2CCCC3)c1	0.22	0.33
111	COc1cccc(-n2nnc3c(=O)n(CC(=O)Nc4ccccc4C)cnc32)c1	0.08	-0.49
112	O=C(c1cc2c(s1)CCC2)N1C(=O)c2ccccc2S1(=O)=O	2.2	-0.04
113	NS(=O)(=O)c1cccc(NC(=O)CC(NC(=O)c2ccccc2Cl)c2ccccc2)c1 (configuration not stated)	0.16	-2.9
114	O=C(c1ccco1)N1CCN(CC(O)COc2ccc3oc4ccccc4c3c2)CC1 (configuration not stated)	5	0.8
115	O=C(Cc1ccc(Cl)cc1)NCCc1cnc[nH]1	0.43	0.57
116	O=C(Cc1ccc(F)cc1)Nc1cccc(-c2cn3c(n2)SCC3)c1	10*	-0.01*
117	CCCCc1ccc(S(=O)(=O)Nc2nnc(C)s2)cc1	0.44	-1.2
118	O=C(O)CCNc1nc(-c2ccccc2)nc2ccccc12	0.63	-0.97
